Assay outcomes from PubChem.
Sa growth inh: S. aureus growth inhibition at 42 and 30 °C, primary screen, LtaS inhibitor project, RN4220, two temperatures. OD600, 20 h, 42 °C; hits give low values. relative growth, % (concentration not given with the values). hit rate 0.53% among 170,000;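 active = growth at 42 °C up to 50% and 20 or more points under that at 30 °C, or under 10% at both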;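 also: 300 nL library stock went into each well; scaled to the means of positive and negative controls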
GIV Gai3 FP: inhibitors of GIV peptide binding to Galpha-i3, primary screen, biochemical, fluorescence polarization, FITC-GIV GBA peptide, rat Galphai3. Guanine nucleotide-binding protein G(i) subunit alpha-3 (Rattus norvegicus), P08753. 90 min; hits give low values; scaled: aluminum fluoride 0%, vehicle 100%. percent of control (FP), % (concentration not given with the values). hit rate 0.42% among 210,000;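 active = replicate mean at 85% of control or lower, very high polarization wells dropped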;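 also: wells of about 15 µL received 100 nL stock; the first replicate is given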
Target sequence (P08753 whole entry, looked up): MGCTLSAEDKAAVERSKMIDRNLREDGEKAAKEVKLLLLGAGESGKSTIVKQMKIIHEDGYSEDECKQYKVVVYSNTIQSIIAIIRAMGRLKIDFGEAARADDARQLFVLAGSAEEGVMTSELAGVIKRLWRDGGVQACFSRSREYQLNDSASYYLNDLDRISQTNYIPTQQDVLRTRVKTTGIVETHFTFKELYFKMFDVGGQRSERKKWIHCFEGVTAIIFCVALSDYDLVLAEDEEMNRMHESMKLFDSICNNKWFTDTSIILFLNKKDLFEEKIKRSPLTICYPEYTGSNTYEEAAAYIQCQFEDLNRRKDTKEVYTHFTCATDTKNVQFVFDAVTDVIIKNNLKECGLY
HCMV UL50-53 inh: inhibitors of HCMV UL50-UL53 interaction, biochemical, HTRF; inhibition, % (test concentration not listed); hit rate 0.15% among 190,000; HCMV UL50-UL53 nuclear egress complex (human cytomegalovirus); normalized percent inhibition;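 active = both replicates at 50% or more, plus weaker picks with an unusually low signal ratio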;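 also: stock transfer was 100 nL into about 20 µL; 0% = negative control wells and 100% = wells with untagged competitor protein; inactives centre near -12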
Sa growth inh second temp: recorded beside Sa growth inh, whose call it bears; relative growth, %; measured here: growth at 30 °C;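 optical density after 20 h as mean of two plates; 100% = untreated growth and lower means inhibition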
An asterisk follows results filed as active; nt = not tested or not shown; & = joins results of further samples. An unsorted share of the library; 0.8% or so of the library scored in one or more.

cpd	structure	Sa growth inh	Sa growth inh second temp	GIV Gai3 FP	HCMV UL50-53 inh
1	Cc1noc2ncnc(N3CCC(C(=O)N4CCN(C(=O)c5ccco5)CC4)CC3)c12	106.0	87.6	106.7	-34.7
2	Cc1ccc(-c2nc3ncncn3c2Nc2cccc(C)c2)cc1	80.0	86.1	100.4	-27.7
3	CN(Cc1ccccc1)C(=O)Cn1cnc2c(cnn2C)c1=O	87.1	91.5	nt	-25.5
4	COc1cccc(N2CCN(C(=O)c3cc4c(s3)-c3c(C)cccc3OC4)CC2)c1	112.7	75.4	104.7	-20.3
5	Cc1ccc(O)c(N/C=C/C(=O)C(C)(C)C)c1	97.7	93.0	108.8	4.2
6	CCOC(=O)c1ccc2nc(C(F)(F)F)cc(NC3CCN(Cc4ccccc4)CC3)c2c1	107.8	84.1	103.9	-11.3
7	O=C(CCC1COc2ccccc2O1)Nc1ncccc1O (stereo unspecified)	125.3	82.1	103.9	nt
8	CCC(C)COC(=O)c1ccc(C(=O)O)cc1 (stereo unspecified)	102.9	92.0	100.5	-7.8
9	CSc1ccc(CNCCCn2ccnc2)cc1	113.0	35.3	102.0	-3.4
10	COC(=O)c1ccccc1NC(=O)c1cc(=O)c2ccc(C)cc2o1	nt	nt	98.0	5.7
11	CCOC(=O)Cn1ccc(C(F)(F)F)n1	95.5	88.9	nt	-15.8
12	Cc1c(-c2ccccc2)c(=O)oc2c(CN3CCOCC3)c(O)ccc12	91.8	90.1	92.6	nt
13	O=C1NCCN1CCNC(=S)NC1CC1	101.2	86.2	102.7	-15.6
14	CCc1ccc2nc(N)sc2c1	84.4	81.4	100.0	nt
15	CCOc1ccc(Cn2c(CNS(=O)(=O)c3ccc(Cl)s3)nc3cccnc32)cc1	102.8	90.4	110.4	nt
16	CN1C(=O)/C(=C\c2coc3ccccc3c2=O)c2ccccc21	103.4	90.7	nt	-22.2
17	NNC(=O)CCn1c(-c2ccccc2)c(-c2ccccc2)c2ccccc21	78.1	61.1	104.3	nt
18	CC1=CC(=O)C=C(C)C1=NS(=O)(=O)c1ccccc1	-0.4*	-0.2*	107.8	nt
19	CC(C)Cn1c2ccc(Br)cc2c2nc3ccccc3nc21	104.8	82.2	98.2	nt
20	COc1ccc(OCc2nnc3sc(-c4cc(CC(C)C)[nH]n4)nn23)cc1	nt	nt	116.3	-4.5
21	COc1cccc(C(=O)N2CCC(c3nc4ccccc4o3)CC2)c1	nt	nt	107.4	-21.3
22	CCC(CC)C(=O)Nc1cccc(-c2nc3ccccc3s2)c1	112.5	86.2	102.1	7.4
23	O=C(NCc1ccc2c(c1)CCO2)C1CCC1	99.0	91.5	109.9	-15.0
24	COc1ccc(Nc2nc3ccc(Cl)cc3n3nnnc23)cc1OC	95.3	82.3	125.3	-0.3
25	CC(C)c1ccc(C(=O)NCCCn2ccnc2)cc1	104.4	87.6	nt	-30.9
26	Cc1ccc(C)c(N2CCN(Cc3nnc(-c4ccccc4)o3)CC2)c1	109.3	98.3	104.5	-11.0
27	COc1cccc(CN(C(=S)NCc2ccccc2)c2ccc(F)c(Cl)c2)c1O	107.5	53.0	nt	-3.1
28	COCCOC(=O)c1c(C)oc2ccc(OCc3ccc(Br)cc3)cc12	nt	nt	105.8	-6.7
29	CCN1C(C(=O)OC)=C(OC(=O)CN2C(=O)c3ccccc3C2=O)c2ccccc2S1(=O)=O	nt	nt	99.9	-27.7
30	CCOC(=O)c1cc(NC(=O)N(C(C)C)C2CCCCC2)c(C)nc1C	nt	nt	98.6	-20.7
31	O=C(O)c1ccc(S(=O)(=O)c2ccc3c(c2)C(=O)N(c2ccc(O)cc2)C3=O)cc1	91.3	88.3	104.3	-51.0
32	CC(Sc1nc(-c2ccccc2)cs1)C(=O)NC(N)=O (stereo unspecified)	96.6	102.3	nt	-11.0
33	Cc1cccc(NC(=O)CSc2nc(C)c(Cc3ccccc3)c(=O)[nH]2)c1C	108.6	89.4	107.0	-6.6
34	Nc1ccnc(C(F)(F)F)c1C(=O)c1ccccc1	82.2	89.1	nt	-6.5
35	CC(C)N(CCNc1nnnn1-c1ccccc1)C(C)C	126.1	65.6	nt	-40.3
36	CCCC(C(=O)NC1CCCC1)N(Cc1ccccc1)C(=O)Cn1nnc(-c2ccc(C)o2)n1 (stereo unspecified)	118.5	91.6	108.1	-23.3
37	CC(C)(C)C(=O)NC(=S)Nc1ccccc1	68.2	88.4	100.3	0.6
38	N#Cc1ccccc1CSc1nsc(SCc2ccccc2C#N)c1C#N	110.6	85.1	nt	-8.2
39	O=S(=O)(c1ccc(-n2cnnn2)cc1)N1CCNCC1	95.7	91.0	100.2	nt
40	COc1ccc2c(c1)c(NC(C)=O)c1n2CC(C)(C(=O)NC2CCCCC2)N(CC2CCCO2)C1=O (stereo unspecified)	nt	nt	101.1	47.5
41	S=c1nc(-c2ccccc2)[nH][nH]1	79.3	31.0	98.4	-9.4
42	CC1(C)CC(=O)C(CC(=O)Nc2cc(C(F)(F)F)ccc2Cl)C(=O)C1	84.0	30.1	nt	-21.9
43	CCc1ccc(S(=O)(=O)c2nnn3c2nc(N(CC)Cc2ccccc2)c2cc(Cl)ccc23)cc1	98.3	83.3	103.5	-4.1
44	Cc1cccc(Cn2nc(C)n3c(cc4cc(C)ccc43)c2=O)c1	113.0	91.1	107.5	-6.2
45	O=C(CNCC(c1ccc(F)cc1)N1CCOCC1)NCc1ccccc1Cl (stereo unspecified)	113.2	95.2	nt	-3.8
46	CCOC(=O)c1oc2c(c1C)-c1nn(CC)cc1CC2	90.8	84.0	105.7	-1.5
47	Cc1ccc2oc(C(=O)Nc3sc4c(c3C(=O)NCc3ccccc3)CCCC4)cc(=O)c2c1	99.7	83.8	103.8	-22.3
48	COc1ccc(CNC(=O)c2oc3ccc4nc(N(C)C)sc4c3c2C)cc1	97.4	83.0	104.2	20.0
49	CC(C)(C)OC(=O)N1CCC(n2nccc2N)CC1	105.8	75.6	102.5	-9.2
50	Ic1ccc(Nc2nc3nonc3nc2N/N=C\c2ccco2)cc1	57.0	60.5	110.6	1.3

The list goes on, starting with the last five of the part before.
cpd	structure	Sa growth inh	Sa growth inh second temp	GIV Gai3 FP	HCMV UL50-53 inh
46	CCOC(=O)c1oc2c(c1C)-c1nn(CC)cc1CC2	90.8	84.0	105.7	-1.5
47	Cc1ccc2oc(C(=O)Nc3sc4c(c3C(=O)NCc3ccccc3)CCCC4)cc(=O)c2c1	99.7	83.8	103.8	-22.3
48	COc1ccc(CNC(=O)c2oc3ccc4nc(N(C)C)sc4c3c2C)cc1	97.4	83.0	104.2	20.0
49	CC(C)(C)OC(=O)N1CCC(n2nccc2N)CC1	105.8	75.6	102.5	-9.2
50	Ic1ccc(Nc2nc3nonc3nc2N/N=C\c2ccco2)cc1	57.0	60.5	110.6	1.3
51	CCC(NC(=O)Nc1cc(C)ccc1OC)c1ccccc1 (stereo unspecified)	104.5	102.2	102.6	10.7
52	C=CCC(NCc1ccco1)c1ccccc1 (stereo unspecified)	102.3	95.5	101.2	-19.7
53	CC1CC(NS(=O)(=O)c2cc3c4c(c2)CCN4C(=O)CC3)CC(C)(C)C1 (stereo unspecified)	103.4	83.5	100.2	9.0
54	CC(C(=O)N(C)Cc1ccccc1)N1CCN(C/C=C/c2ccccc2)CC1 (stereo unspecified)	88.6	90.5	nt	-13.1
55	CCN(CC)C(=O)CSc1[nH]c2ccccc2c(=O)c1C(=O)OC	77.9	83.1	119.6	-29.8
56	C/C(CCC1CC(C)OC1=O)=N\NC(N)=O (stereo unspecified)	101.4	107.7	102.6	-11.4
57	O=c1ccn2c(n1)OC1C(O)C(CO)OC12 (stereo unspecified)	90.6	65.3	102.7	-18.8&-19.9
58	Cc1sc(NC(=O)c2ccccc2)c(C(=O)N2CCCCC2)c1C	98.0	121.2	nt	-0.2
59	Fc1ccc(-c2noc3ncnc(N4CCCCC4)c23)cc1	96.8	101.3	102.5	nt
60	CC(=O)Nc1nc(-c2ccc(S(=O)(=O)N3CCN(c4ccccc4)CC3)cc2)cs1	nt	nt	102.9	-6.7
61	Cc1noc(C)c1CSc1ncccc1C(=O)Nc1ccnn1C1CCN(C)CC1	99.0	96.4	nt	-6.4
62	CCS(=O)(=O)c1nc(S(=O)(=O)c2ccc(Cl)cc2)c(NCc2ccc(Cl)cc2)s1	100.9	91.9	106.9	-4.9
63	O=C(NCc1ccco1)c1cc2nc3c(c(C(F)(F)F)n2n1)CCc1ccccc1-3	95.1	90.7	nt	-1.9
64	COc1ccccc1/C=C/C(=O)NCCc1ccccn1	91.4	92.3	nt	-40.7
65	COCCn1cc(C(=O)c2cc(F)ccc2OCC(=O)Nc2cc(C)on2)cc(C#N)c1=O	91.3	87.7	nt	-26.6
66	CC(C)c1n[nH]c(=S)n1C	108.1	101.2	108.5	-18.8
67	CN1CCN(C(CC(=O)Nc2ccc(Oc3ccccc3)cc2)C(=O)O)CC1 (stereo unspecified)	93.2	93.0	104.7	-15.2
68	COc1ccc(C(=O)n2c(=O)oc3ccc(C(C)(C)C)cc32)cc1OC	nt	nt	108.6	-6.9
69	CCc1cccc(NC(=O)c2coc(=O)c3ccccc23)c1	105.7	85.7	108.7	-27.7
70	Cc1c(C(=O)N(C)C)sc2c1c(=O)n(-c1ccccc1)c(=O)n2CC(=O)N(C)c1ccccc1	94.2	90.7	100.5	6.1
71	O=C(Nc1ccc2c(c1)OCCO2)c1ccc(N2C(=O)CCS2(=O)=O)cc1Cl	nt	nt	104.7	-20.6
72	O=C1/C(=C/c2cccnc2)SC(=S)N1N1CCOCC1	97.4	85.5	103.2	-68.8
73	O=C(CSc1nc2ccccc2c(=O)n1-c1ccccc1)N1CCOCC1	89.7	81.6	97.9	-8.8
74	CCCCn1c(CO)cnc1S(=O)(=O)CC1CCC1	107.2	89.4	106.9	-10.8
75	Cc1cn(CC(C)C)c(=O)[nH]c1=O	95.3	89.2	103.3	12.2

Quoted from the listing:
In GIV Gai3 FP, COc1ccc(C(=O)n2c(=O)oc3ccc(C(C)(C)C)cc32)cc1OC shows 108.6
In Sa growth inh second temp, Fc1ccc(-c2noc3ncnc(N4CCCCC4)c23)cc1 shows 101.3
In HCMV UL50-53 inh, Cc1c(C(=O)N(C)C)sc2c1c(=O)n(-c1ccccc1)c(=O)n2CC(=O)N(C)c1ccccc1 shows 6.1
In Sa growth inh second temp, Cc1sc(NC(=O)c2ccccc2)c(C(=O)N2CCCCC2)c1C shows 121.2
In Sa growth inh second temp, Cc1cn(CC(C)C)c(=O)[nH]c1=O shows 89.2

New compounds follow
cpd	structure	Sa growth inh	Sa growth inh second temp	GIV Gai3 FP	HCMV UL50-53 inh
76	CCOC(=O)Nc1ccc2c(c1)N(C(=O)CCNC)c1ccccc1S2	92.5	78.9	103.6	-21.4
77	CCCCN(Cc1ccccc1)C(=O)c1cc2c(=O)n3ccccc3nc2s1	nt	nt	105.3	-45.5
78	O=C(NCCc1ccccc1)N1CCSc2ncccc21	nt	nt	110.5	4.1
79	N#Cc1c2c(c(-c3ccccc3)[nH]c1=S)CCCC2	122.9	77.5	99.4	-11.4
80	CCOC(=O)c1nc2c3ccccc3ncn2n1	80.3	92.7	nt	-9.2
81	COc1cccc(Cn2c(SCc3ccccc3C)nc3ccncc32)c1	nt	nt	101.4	6.3
82	CCN(CC)C(=O)N(CC)C1CCCCC1	113.2	98.8	105.3	-18.0
83	CCCCN1CC(=O)c2ccccc2S1(=O)=O	nt	nt	102.9	11.0
84	COc1ccc(NC(=O)Nc2ccc(Nc3cc(N(C)C)nc(C)n3)cc2)cc1	nt	nt	99.1	-27.1
85	CCCCN(C)C(=O)c1cn(C)c2ccc(S(=O)(=O)N3CCC(C)CC3)cc2c1=O	104.6	92.6	103.8	-8.7
86	Cc1ccc(-n2cc(C(=O)Oc3cccc(C)c3)c3ccccc3c2=O)cc1	88.7	93.0	114.6	nt
87	Cc1ccc(CNC(=O)c2cccn2-c2nnc(N3CCCCC3)s2)cc1	126.5	91.3	100.2	nt
88	COc1ccc2[nH]cc(CCNC(=O)c3cnn(-c4ccc(Cl)cc4)c3C3CCNCC3)c2c1	nt	nt	114.4	4.8
89	O=C(NCc1cccs1)c1csc(C2COc3ccccc3O2)n1 (stereo unspecified)	95.8	74.0	105.7	-1.8
